StopGo RLuc: Primary qHTS Assay for Foot and Mouth Disease Virus Antivirals against NCGC Sytravon and CBC Compound Libraries: Renilla Luciferase Signal | actives 0.32% (n = 120,000) | HEK cells with a luciferase reporter of 2A StopGo recoding | AID 1745857, 2022 | Potency, µM (series often up to 57.5 µM), without a hit: top-dose signal change, negative = less light; active means well fitted falling curve with a large enough effect; inconclusive means small, poorly fitted or top-dose-only effect; inactive means no such curve, though single readings can be large or run the other way; note: nearly all actives have a fitted effect of over 55% in size; overnight with compound
2A firefly: Primary qHTS Assay for Foot and Mouth Disease Virus Antivirals against NCGC Sytravon and CBC Compound Libraries: Firefly Luciferase Signal; Potency, µM (series often up to 57.5 µM), for the others: at the top dose signal change, negative = less light; HEK cells with a luciferase reporter of 2A StopGo recoding; actives 0.23% (n = 120,000); active = well fitted falling curve with a large enough effect; inconclusive = small, poorly fitted or top-dose-only effect; inactive = no such curve, though single readings can be large or run the other way; note: nearly all actives have a fitted effect of over 60% in size; overnight with compound
Numbers without * were called inactive; ? = inconclusive; [ ] = dose if it differs, or a comment. % is set by controls: 0 for no effect and ±100 for the full control effect; potency is the fitted concentration of half-maximal effect.

Order of values: StopGo RLuc, 2A firefly
CC(C)CC(=O)N1CCN(Cc2ccncc2)CC1
  0%, 5%
CCc1nnsc1C(=O)N(C)CCOc1cccc(Cl)c1
  7%, 7%
Cc1cccc(Cn2c(SCc3ccccc3)nc3c2c(=O)[nH]c(=O)n3C)c1
  -17%, -5%
COc1ccc(Nc2cc(C)nc(Nc3ccc(NC(=O)C(C)(C)C)cc3)n2)cc1
  ?, ?
CCCNC(=S)NC(C)C12CC3CC(CC(C3)C1)C2 (stereo not given)
  -7%[1.06 µM], -5%
Cc1ccc2c(c1)c(=O)c(S(=O)(=O)c1ccc(C)c(C)c1)cn2CC(=O)Nc1ccccc1
  41%[activator], 27%
CCOC(=O)N1CCN(c2ncc3c(n2)CC(/C=C/c2ccccc2)CC3=O)CC1 (stereo not given)
  -4%, -7%
Cc1cc(C)cc(OC(=O)/C=C/c2nc3ccccc3s2)c1
  -12%, 74%[activator]
Cc1csc(NC(=O)c2sccc2-c2ccccc2)n1
  14%, 11%
COC(=O)[C@H](CC(C)C)N(Cc1cn(CC2CCCCC2)nn1)S(=O)(=O)c1ccc(F)cc1Br
  ?, ?
Cc1ccc(C)c(S(=O)(=O)N2CCN(Cc3cccc4cccnc34)CC2)c1
  -8%, -15%
O=C(CN1c2cccc3cccc(c23)S1(=O)=O)Nc1ccc(S(=O)(=O)N2CCCC2)cc1
  -7%, -12%
CCOc1ccccc1NC(=O)c1ccc(CN2CCCC2=O)cc1
  11%, 30%
CCCCNc1oc(/C=C/c2ccc(OC)c(OC)c2)nc1C#N
  79%[activator], 0%
CCCc1cc(C(=O)Nc2ccc(Br)cc2)no1
  42%[activator], 215%[activator]
CCc1cccc(CC)c1NC(=O)CCn1cnc2c1c(=O)n(C)c(=O)n2C
  6%, 3%
CC(=O)c1ccccc1NCC(=O)Nc1ccc(C#N)cc1
  61%[activator], 30%[activator]
CN1CCN(c2ncnc3c2cnn3-c2cccc(Cl)c2)CC1
  ?, -47%
Cc1ccccc1NC(=O)c1sc2nc3c(cc2c1N)CN(Cc1ccccc1)CC3
  ?, 4%
CN[C@H]1C[C@H]2c3[nH]c4c(-c5ccc6c(c5)OCO6)cccc4c3CCN2C[C@H]1[C@H](C)O
  -10%, -8%

Copied from the results shown (two entries):
Order of values: StopGo RLuc, 2A firefly
CN1CCN(c2ncnc3c2cnn3-c2cccc(Cl)c2)CC1
  ?, -47%
Cc1ccccc1NC(=O)c1sc2nc3c(cc2c1N)CN(Cc1ccccc1)CC3
  ?, 4%

Next part:
Order of values: StopGo RLuc, 2A firefly
O=C(NCc1cccn1Cc1ccccc1)Nc1cccc(C(F)(F)F)c1
  58%[activator], -13%
CN(Cc1nc2ccccc2s1)c1ncc(C(F)(F)F)cc1Cl
  0%, 36%[activator]
CC1(C(=O)OCC(=O)c2ccc3ccccc3c2)CC1(Cl)Cl (stereo not given)
  35%[activator], 0%
COc1cc(NC(=O)c2cc(S(=O)(=O)N3CCCCC3)c[nH]2)cc(OC)c1OC
  1%, 5%
O=C(Nc1ccc2c(c1)CCC2)c1cc(Cl)ccc1Cl
  20%, 193%[activator]
Cc1cc(C)c2c(CC(=O)Nc3cc(C(F)(F)F)ccc3Cl)coc2c1
  11%, -17%
Cc1c(C(=O)OCc2ccccc2)[nH]c2c1C(=O)CC(c1ccc(N(C)C)cc1)C2 (stereo not given)
  -11%, -20%
O=S(=O)(Nc1nc2ccccc2nc1NCC1CCCO1)c1cc(Cl)ccc1Cl (stereo not given)
  165%[activator], 8%
CN(C(=O)c1ccc2c(c1)NC(=O)CS2)c1ccccc1
  2%, 1%
COc1ccccc1-c1nnc(SCC(=O)N2CCN(C(C)=O)CC2)n1N
  17%, 45%[activator]
Cc1ccc(-c2noc(-c3cccc(Cl)c3)n2)cc1
  0%, 0%
CCC1(c2ccccc2)C(=O)N(COC)C(=O)N(COC)C1=O
  -2%, -6%[11.5 µM]
CC1CCN(S(=O)(=O)c2ccc3c(c2)N(CC(=O)NCCCN2CCCCC2)C(=O)CS3)CC1
  -14%, -22%
CCN(c1ccccc1)S(=O)(=O)c1c(C)nc2scc(C)n2c1=O
  3%, -17%
O=C(Cc1ccc(Cl)cc1)NNC(=O)C1CCCCC1
  0%, 4%
CCC(C)C(=O)NCc1ccc(COC(C)C)cc1 (stereo not given)
  -11%, -9%
CC(=O)c1ccc(C(=O)N(Cc2cccs2)Cc2cccs2)s1
  35%[activator], 24%
Cn1nnnc1SCCNCc1ccc(OCc2ccccc2Cl)cc1
  12%, 0%
COc1cccc(-c2csc(-c3nc(-c4ccc(C)cc4C)cs3)n2)c1
  5%, ?
Cc1cc(C)c2nc(-c3ccccn3)cc(C(=O)Nc3cc(C)on3)c2c1
  4%, 15%
CCOc1ccc(C(=O)Oc2c(Sc3ccccc3)c(C)nn2C(C)(C)C)cc1OCC
  2%, -16%
O=C(NCC(=O)N1CCCCCC1)C1CCCN(S(=O)(=O)c2ccc(Cl)cc2)C1 (stereo not given)
  -1%, -5%
CCN(CC)c1nc2c(c(=O)n(Cc3ccccc3)c(=O)n2C)n1Cc1ccccc1
  6%, -12%
O=C(Nc1ccc2oc(-c3ccc4ccccc4c3)nc2c1)c1cc(Cl)ccc1Cl
  3%, 37%[activator]
O=C(c1cccs1)N1CCCCCCC1
  9%, 0%
O=[N+]([O-])c1ccc(NS(=O)(=O)c2ccc(I)s2)c([N+](=O)[O-])c1
  0%, ?
COc1cc2cc(C(=O)Nc3ccc4c(c3)OCCO4)[nH]c2cc1OC
  -20%, ?
CC(=O)NC(C)c1nc2ccccc2n1Cc1ccccc1Cl (stereo not given)
  -18%, -8%
CCc1ccc(NS(=O)(=O)c2ccc(NC(=O)N3CCCC3)cc2)cc1
  37%[activator], 9%
COc1ccc(C(=O)Nc2ccc(C3(C)CC=NO3)cc2)cc1 (stereo not given)
  6%, 2%
O=S(=O)(c1ccccc1)n1nc(-c2ccc(Cl)cc2)nc1NCc1ccc(F)cc1
  -19%, -1%
Cc1noc2ncnc(N3CCN(c4ccccc4F)CC3)c12
  ?, ?
CC1(C)CC(=O)C/C(=N/NC(=O)c2cccc(Br)c2)C1
  -1%, 54%[activator]
CC(C)(C)c1ccc(OCCOc2ccccc2/C=C(/C#N)C(N)=O)cc1
  4%, 161%[activator]
CC1(C)COCCN1C(=O)c1cccc(CN2CCCC2)c1
  1%, -1%
COc1cc(-c2c(NC(=O)c3ccccc3)oc3ccc(Cl)cc3c2=O)cc(OC)c1OC
  -19%, -11%
Cc1cccc(-c2cc(C(=O)Nc3cccc(C(F)(F)F)c3)[nH]n2)c1O
  ?, ?
CCOc1ccc(CCNC(=O)c2ccc(-c3nc(COc4ccc(C)cc4)c(C)o3)cc2)cc1
  -8%, -8%
CCc1c(C)sc(NC(=O)Cc2ccc(Cl)cc2Cl)c1C#N
  0%, 23%
N#Cc1nc(C2CC2)oc1N1CCN(C(=O)c2ccc[nH]c2=O)CC1
  -6%, -1%
O=C(Nc1cccnc1Cl)c1cc(-c2ccc(Cl)cc2)on1
  -7%, -11%
COc1ccc2oc(-c3ccc(NC(=O)c4ccc(Br)o4)cc3)nc2c1
  6%, 96%[activator]
CC(C)c1ccccc1NC(=O)CN(c1ccccc1)S(=O)(=O)N(C)C
  12%, -10%
Cc1ccc(CNc2nc3ccccc3n3cnnc23)cc1
  -7%, 16%
CCN(CC)CCNC(=O)c1cn(CC)c2ccc(S(=O)(=O)N3CCc4ccccc4C3)cc2c1=O
  -15%, -29%
N#Cc1c(NC(=O)CS(=O)(=O)c2ccc(Cl)cc2)sc2c1CCCCC2
  -10%, -12%
Cc1ccc(CN(C(=O)COc2ccc(Cl)cc2Cl)C2CCS(=O)(=O)C2)o1 (stereo not given)
  -9%, 0%
O=[N+]([O-])c1ccc(/C=N\O)o1
  -1%, -9%[11.5 µM]
COc1ccc(-c2nnc(SCCS(=O)(=O)c3ccc(Br)cc3)o2)cc1
  9%, 12%
Cc1nc(-c2nc3ccccc3s2)cs1
  20%, 107%[activator]

The list goes on.
Order of values: StopGo RLuc, 2A firefly
COc1cccc(-n2c(SCC(=O)N3CCCc4ccccc43)nc3c([nH]c4ccccc43)c2=O)c1
  -7%, -1%
Cn1c(=O)c2c(ncn2Cc2c(F)cccc2Cl)n(C)c1=O
  9%, 13%
Cc1cn(C)c(CC(=O)Nc2cccc(Cl)c2C)c1C(=O)O
  7%, 7%
CCCNC(=O)c1ccc2c(c1)N=C(CCC)c1ccccc1S2
  27%, -4%
CC(=O)c1ccc(S(=O)(=O)NCCCC(=O)O)cc1
  -11%[1.06 µM], 2%
COc1ccc(C(=O)Nc2cc(-c3nc4ccccc4o3)ccc2OC)cc1Cl
  5%, 8%
CCc1ccc(/C=N/NC(=O)c2cccs2)cc1
  0%, 33%[activator]
CCOC(=O)c1oc2c(c1C)-c1nn(Cc3c(F)cccc3Cl)cc1CC2
  2%, 0%
CCOC(=O)c1cc(S(=O)(=O)N2CCN(c3ccc(C(C)=O)cc3)CC2)[nH]n1
  2%, 30%
CC(O)CSc1nc2c(c(=O)n(C)c(=O)n2C)n1Cc1ccc(Cl)cc1 (stereo not given)
  -10%, 1%
O=C(CC12CC3CC(CC(Br)(C3)C1)C2)OC(C(=O)c1c[nH]c2ccccc12)c1ccccc1 (stereo not given)
  74%[activator], 12%
Clc1cccc(N2CCNCC2)c1
  13%, 7%[11.5 µM]
CCCc1nn2c(=O)cc(COC(=O)c3cccc(NC(=O)c4cccs4)c3)nc2s1
  62%[activator], -2%
CCCN(C(=O)Cc1nc(-c2ccc(OC)cc2)no1)c1ccccc1C
  7%, -25%
COc1cc(NC(=O)COc2ccc3c(C)c(C)c(=O)oc3c2C)cc(OC)c1OC
  -6%, 6%
CCCOc1ccc(NC(=O)CC2C(=O)N(c3ccc(OC)cc3)C(=O)N2CCc2ccncc2)cc1 (stereo not given)
  -7%, -8%
CCOC(=O)C1=CN(c2ccc(F)cc2)C=C(C(=O)OCC)C1c1cccc(F)c1
  8%, 3%
CCCCCCCOc1cccc(N)c1
  -4%, 47%[activator]
NS(=O)(=O)c1ccc(CCNC(=O)CCCCCn2c(=O)[nH]c3ccccc3c2=O)cc1
  19%, 19%
O=C(Nc1ccccc1O)c1cc(-c2ccccc2)nc2ccccc12
  -5%, -3%
COc1cc(/C=C/C(=O)OCCOc2ccc(Br)cc2)ccc1O
  -4%, -13%
CCOc1ccccc1CNC(=O)c1ccc(NC(=O)N2CC(C)Sc3ccccc32)cc1 (stereo not given)
  -8%, -11%
COc1ccccc1-c1cc(C(=O)Nc2sc3c(c2C#N)CCCC3)no1
  -1%, -11%

Of the compounds above, these contain an aryl methoxy group:
Order of values: StopGo RLuc, 2A firefly
COc1ccc(Nc2cc(C)nc(Nc3ccc(NC(=O)C(C)(C)C)cc3)n2)cc1
  ?, ?
CCCCNc1oc(/C=C/c2ccc(OC)c(OC)c2)nc1C#N
  79%[activator], 0%
COc1cc(NC(=O)c2cc(S(=O)(=O)N3CCCCC3)c[nH]2)cc(OC)c1OC
  1%, 5%
COc1ccccc1-c1nnc(SCC(=O)N2CCN(C(C)=O)CC2)n1N
  17%, 45%[activator]
COc1cccc(-c2csc(-c3nc(-c4ccc(C)cc4C)cs3)n2)c1
  5%, ?
COc1cc2cc(C(=O)Nc3ccc4c(c3)OCCO4)[nH]c2cc1OC
  -20%, ?
COc1ccc(C(=O)Nc2ccc(C3(C)CC=NO3)cc2)cc1 (stereo not given)
  6%, 2%
COc1cc(-c2c(NC(=O)c3ccccc3)oc3ccc(Cl)cc3c2=O)cc(OC)c1OC
  -19%, -11%
COc1ccc2oc(-c3ccc(NC(=O)c4ccc(Br)o4)cc3)nc2c1
  6%, 96%[activator]
COc1ccc(-c2nnc(SCCS(=O)(=O)c3ccc(Br)cc3)o2)cc1
  9%, 12%
COc1cccc(-n2c(SCC(=O)N3CCCc4ccccc43)nc3c([nH]c4ccccc43)c2=O)c1
  -7%, -1%
COc1ccc(C(=O)Nc2cc(-c3nc4ccccc4o3)ccc2OC)cc1Cl
  5%, 8%
CCCN(C(=O)Cc1nc(-c2ccc(OC)cc2)no1)c1ccccc1C
  7%, -25%
COc1cc(NC(=O)COc2ccc3c(C)c(C)c(=O)oc3c2C)cc(OC)c1OC
  -6%, 6%
CCCOc1ccc(NC(=O)CC2C(=O)N(c3ccc(OC)cc3)C(=O)N2CCc2ccncc2)cc1 (stereo not given)
  -7%, -8%
COc1cc(/C=C/C(=O)OCCOc2ccc(Br)cc2)ccc1O
  -4%, -13%
COc1ccccc1-c1cc(C(=O)Nc2sc3c(c2C#N)CCCC3)no1
  -1%, -11%
